Assay outcomes deposited in PubChem by National Center for Advancing Translational Sciences (NCATS).
TRPML1 inh: inhibitors of human TRPML1 channel; TRPML1-inducible cells, Ca2+ dye fluorescence, FDSS; stronger effect = lower value; inhibition of EC80 agonist-evoked calcium signal; activity change, negative = inhibition, % (concentration not given with the values); actives 0.02% (n = 390,000); AID 624415; in the data active means activity change below about -50%; inconclusive means about -30% to -50%; inactive means above about -30%;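 also: stimulus is agonist 54-4 at its EC80 concentration; % is scaled to controls: 0 for no effect and ±100 for the full control effect; compound concentration not given in the record; the text of the record puts the active cut at -80%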
Target sequence (Q9GZU1 whole entry, looked up): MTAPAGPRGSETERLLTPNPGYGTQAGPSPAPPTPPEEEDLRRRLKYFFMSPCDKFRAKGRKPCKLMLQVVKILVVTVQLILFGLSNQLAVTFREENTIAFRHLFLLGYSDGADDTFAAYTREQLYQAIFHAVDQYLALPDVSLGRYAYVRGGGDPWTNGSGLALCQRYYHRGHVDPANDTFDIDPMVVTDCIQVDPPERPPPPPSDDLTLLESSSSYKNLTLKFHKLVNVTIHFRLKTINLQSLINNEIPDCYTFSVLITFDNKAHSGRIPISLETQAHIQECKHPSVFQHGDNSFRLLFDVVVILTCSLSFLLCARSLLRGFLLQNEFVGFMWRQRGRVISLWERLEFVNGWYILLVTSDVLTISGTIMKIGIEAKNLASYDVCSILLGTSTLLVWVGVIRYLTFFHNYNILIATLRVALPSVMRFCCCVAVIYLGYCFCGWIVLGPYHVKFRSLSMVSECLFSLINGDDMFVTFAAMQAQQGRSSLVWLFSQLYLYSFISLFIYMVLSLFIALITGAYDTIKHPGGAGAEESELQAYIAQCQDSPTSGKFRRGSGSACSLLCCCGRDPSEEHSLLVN
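Tet-induced TRPML1-DL cells loaded with Ca8 no-wash calcium dye were read kinetically on FDSS. Compound addition was followed by EC80 agonist 54-4 (4 uM final); inhibition was read over 110 s.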
CtBP-E1A inh: inhibitors of CtBP/E1A interaction. activity change, % (concentration not given with the values). actives 0.49% (n = 340,000). AID 651724. AlphaScreen GST-E1A/His-CtBP binding, 1536-well; stronger effect = lower value; control for the full effect not named in the record; in the data active means activity change below about -65%; inconclusive means about -30% to -65%; inactive means above about -30%; also: % is scaled to controls: 0 for no effect and ±100 for the full control effect
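Steps: dispense buffer (Tris pH 8.0, NaCl 300 mM, TCEP 1 mM, BSA, Tween 20); add 5X protein mix (GST-E1A, His-CtBP, 125 nM each); pin 23 nL compound; 2 h at 37 °C, dark; add 5X beads (50 ug/mL); 1 h; read.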
TRPML1 ag: human mucolipin-1 channel agonism. Q9GZU1. TRPML1-expressing cells, Ca2+ dye fluorescence, FDSS; host cell line not named in the record; reference of the full effect not given here. activation, % (test concentration not listed). actives 0.12% (n = 410,000). AID 624414; in the data active = activation above about 50%; inconclusive = about 30% to 50%; inactive = below about 30%; also: 0% is about no effect; the text of the record puts the active cut at 80%
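Kinetic FDSS Ca2+ read in Tet-induced TRPML1-DL cells (ABD Ca8 dye plus quencher, 45-90 min RT loading): baseline, then compound, then 110 s agonist window; EC80 agonist 54-4 at 4uM final added afterwards for a 110 s antagonist window.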
PINK1 expr mod: changes PINK1 expression. PINK1 immunofluorescence, high-content cytometry, 24 h. actives 0.2% (n = 410,000). Potency, µM (titrated, usually from 76.6 µM), without a hit: top-dose activation (PINK1 increase), actives largely listed as activators; active = well fitted activation curve with a large enough effect; inconclusive = small, poorly fitted or top-dose-only effect; inactive = flat fitted curve, though single readings scatter; cell line not stated here;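 also: potency is read from the fitted curve at half-maximal effect; % of control where 0% means no effect; nearly all actives have a fitted effect of over 65% in size; a mitochondrial uncoupler was the plate control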
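Measures PINK1 amount and localization on or inside mitochondria by immunofluorescence. Stable cells get compounds at 5 concentrations for 24 hours before fixation and staining; CCCP controls included.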
Six1-Eya2 blk: Six1/Eya2 interaction inhibition; Q15475+O00167; AlphaScreen GST-Six1/His-Eya2 binding, biochemical; stronger effect = lower value; control for the full effect not named in the record; activity change, % (test concentration not listed); actives 0.56% (n = 360,000); AID 651725; in the data active = activity change below about -65%; inconclusive = about -30% to -65%; inactive = above about -30%; also: % is scaled to controls: 0 for no effect and ±100 for the full control effect; compound concentration not given in the record
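Compounds are tested against tagged Six1 and Eya2 proteins bridged by glutathione donor and nickel acceptor beads; after a one-hour incubation at 37 °C without light, AlphaScreen emission is recorded.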
D2 ag: activates the human D2 dopamine receptor; P14416; DiscoveRx PathHunter D2 beta-arrestin, luminescence, 90 min; 100% = 57 uM dopamine signal; activation, % (concentration not given with the values); actives 0.084% (n = 360,000); in the data active = activation above about 40%; inconclusive = about 15% to 40%; inactive = below about 15%; also: compound concentration not given in the record; the text of the record calls up to 30% inactive
Target sequence (P14416 whole entry, looked up): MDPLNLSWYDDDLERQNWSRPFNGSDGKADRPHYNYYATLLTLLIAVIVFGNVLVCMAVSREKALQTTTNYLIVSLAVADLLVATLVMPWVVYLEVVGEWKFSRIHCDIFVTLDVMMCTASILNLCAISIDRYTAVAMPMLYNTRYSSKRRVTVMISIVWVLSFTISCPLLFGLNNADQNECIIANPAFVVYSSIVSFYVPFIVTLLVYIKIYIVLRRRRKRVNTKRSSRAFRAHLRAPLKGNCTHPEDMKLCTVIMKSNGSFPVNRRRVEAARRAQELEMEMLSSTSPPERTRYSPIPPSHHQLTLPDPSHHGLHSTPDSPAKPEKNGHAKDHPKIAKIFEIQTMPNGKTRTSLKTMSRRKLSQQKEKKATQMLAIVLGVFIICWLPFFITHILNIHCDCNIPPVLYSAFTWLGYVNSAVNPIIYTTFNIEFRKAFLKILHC
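Agonist mode: compounds alone added to overnight-plated D2 PathHunter cells for 90 min at 37 C, with 57 uM final dopamine (EC100) defining full response. Beta-arrestin recruitment detected by chemiluminescent reagent, read after 1 h at ambient temperature.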
* hit, by the source's call; [ ] = another dose, or the depositor's remark. This is a random part of the collection; about 1% have a hit in one of these screens.

How did Cc1ccnc2nc(C(=O)OCC(=O)NCc3cccc(Cl)c3)nn12 do in these assays?
TRPML1 inh: 4.4; CtBP-E1A inh: 1.8; TRPML1 ag: -0.3; PINK1 expr mod: 1.1%; Six1-Eya2 blk: 5.7; D2 ag: -0.2

Results for CN(C(=O)N1CCN(c2ccccn2)CC1)c1ccccc1 ?
TRPML1 inh: 5.4; CtBP-E1A inh: -3.4; TRPML1 ag: -0.4; PINK1 expr mod: -1.1%; Six1-Eya2 blk: 6.7; D2 ag: 1.1

What do the screens show for `CCCN1CCN(CCCNC(=O)C2CCCN(c3nc4ccc(OCC)cc4s3)C2)CC1` (stereo not drawn)?
TRPML1 inh: 29.6; CtBP-E1A inh: 6.8; TRPML1 ag: 2.7; PINK1 expr mod: 1.6%[38.3 µM]; Six1-Eya2 blk: -0.7; D2 ag: -1.3

Results for COc1ccc(/C(O)=C/c2nc3ccccc3n(-c3ccccc3)c2=O)cc1 ?
TRPML1 inh: -7.8; CtBP-E1A inh: 12.4; TRPML1 ag: 1.9; PINK1 expr mod: inconclusive; Six1-Eya2 blk: 31.9; D2 ag: -5.0

What do the screens show for `CCOCCCNC(=O)c1cc(Cl)c(NC(=O)C2=C(C)OCCS2)cc1OC`?
TRPML1 inh: -11.9; CtBP-E1A inh: 1.0; TRPML1 ag: 2.3; PINK1 expr mod: 2.4%; Six1-Eya2 blk: -0.4; D2 ag: 0.4

Results for COc1ccccc1CNc1ccc(Br)cn1 ?
TRPML1 inh: -10.4; CtBP-E1A inh: 0.3; TRPML1 ag: 3.8; PINK1 expr mod: 1.6%; Six1-Eya2 blk: 1.2; D2 ag: 2.0

What do the screens show for `O=C(CSc1nc2ncc(Cl)cc2[nH]1)N(Cc1ccccc1)C1CCS(=O)(=O)C1` (stereo not drawn)?
TRPML1 inh: 5.6; CtBP-E1A inh: 23.5; TRPML1 ag: -0.6; PINK1 expr mod: 0.1%; Six1-Eya2 blk: 9.1; D2 ag: -0.7

How did O=c1ccc2cc(S(=O)(=O)N3CCOCC3)ccc2o1 do in these assays?
TRPML1 inh: -4.5; CtBP-E1A inh: 1.0; TRPML1 ag: 0.8; PINK1 expr mod: 0.0%; Six1-Eya2 blk: 8.2; D2 ag: -1.8

Results for Cc1ccccc1NS(=O)(=O)c1ccc(C(=O)NCC2CCCO2)cc1 (stereo not drawn) ?
TRPML1 inh: -5.6; CtBP-E1A inh: 7.3; TRPML1 ag: 0.3; PINK1 expr mod: 3.3%; Six1-Eya2 blk: 12.1; D2 ag: 1.4

What do the screens show for `COC(=O)CC(CC(=O)OC)n1cccc1`?
TRPML1 inh: -3.6; CtBP-E1A inh: -22.9; TRPML1 ag: 0.1; PINK1 expr mod: -1.6%; Six1-Eya2 blk: 0.1; D2 ag: 0.9

What do the screens show for `NC(Cc1ccc(Cl)cc1)c1csc(Nc2cc(Oc3ccccc3)ncn2)n1` (stereo not drawn)?
CtBP-E1A inh: -15.3; TRPML1 ag: -0.2; PINK1 expr mod: -1.2%; Six1-Eya2 blk: -9.8; D2 ag: 13.6

What do the screens show for `Cc1ccc(S(=O)(=O)CCC(=O)OCC(=O)N(C)C2CCS(=O)(=O)C2)cc1` (stereo not drawn)?
TRPML1 inh: -16.5; CtBP-E1A inh: 1.6; TRPML1 ag: 1.3; PINK1 expr mod: 0.3%; Six1-Eya2 blk: 6.5; D2 ag: -1.7

What do the screens show for `C=CCn1c(=O)c2c(C)c(C)sc2n2c(Nc3ccccc3)nnc12`?
TRPML1 inh: -1.0; CtBP-E1A inh: -4.7; TRPML1 ag: 0.3; PINK1 expr mod: 2.8%[38.3 µM]; Six1-Eya2 blk: -15.7; D2 ag: -0.9

Results for CCCOCCOC(=O)c1[nH]c2c(c1C)C(=O)CC(c1cc(OC)ccc1OC)C2 (stereo not drawn) ?
TRPML1 inh: -10.1; CtBP-E1A inh: -0.6; TRPML1 ag: 0.3; PINK1 expr mod: 7.1%; Six1-Eya2 blk: -2.4; D2 ag: 0.4

How did CCOc1ccc(-c2nnn(CC(=O)NCc3ccc(C)cc3)n2)cc1 do in these assays?
TRPML1 inh: 9.6; CtBP-E1A inh: -3.3; TRPML1 ag: 1.7; PINK1 expr mod: 11.8%; Six1-Eya2 blk: 8.2; D2 ag: 1.3

How did NC(=O)c1cc(NC(=O)CCNS(=O)(=O)c2cccc(C(F)(F)F)c2)cc(C(N)=O)c1 do in these assays?
TRPML1 inh: 7.8; CtBP-E1A inh: 0.0; TRPML1 ag: -0.2; PINK1 expr mod: 0.5%; Six1-Eya2 blk: inconclusive; D2 ag: -4.3

How did COc1ccc(S(=O)(=O)N2CCSC2)cc1C do in these assays?
TRPML1 inh: 5.8; CtBP-E1A inh: -9.7; TRPML1 ag: 0.3; PINK1 expr mod: -0.2%; Six1-Eya2 blk: -6.0; D2 ag: -3.5

Results for Cc1c(/C=N/NC(=O)c2cccs2)c2ccccc2n1Cc1ccccc1Cl ?
TRPML1 inh: 15.6; CtBP-E1A inh: 2.2; TRPML1 ag: -0.8; PINK1 expr mod: -1.7%; Six1-Eya2 blk: -14.0; D2 ag: -0.1

Results for COc1cc(OC)cc(C(=O)Nc2ccc(-n3cnnn3)c(C)c2)c1 ?
TRPML1 inh: 11.7; CtBP-E1A inh: 10.0; TRPML1 ag: 0.3; Six1-Eya2 blk: -0.3; D2 ag: -3.0

What do the screens show for `O=C(Nc1ccccc1)c1ccc(=O)n(Cc2ccc(F)c(F)c2)c1`?
TRPML1 inh: 45.0; CtBP-E1A inh: -4.4; TRPML1 ag: 0.6; PINK1 expr mod: -1.0%; Six1-Eya2 blk: -1.4; D2 ag: 1.8

What do the screens show for `CC(C)(C)CC(C)(C)c1ccc(O)c(Cc2ccc(Cl)cc2Cl)c1`?
TRPML1 inh: -3.1; CtBP-E1A inh: 6.6; TRPML1 ag: -0.1; PINK1 expr mod: inconclusive; Six1-Eya2 blk: -0.2; D2 ag: 6.0

What do the screens show for `COc1ccc(Cn2ccnc2SCC(=O)NC2CCCCC2)cc1`?
TRPML1 inh: -13.0; CtBP-E1A inh: -1.7; TRPML1 ag: 1.6; PINK1 expr mod: -0.3%; Six1-Eya2 blk: 7.6; D2 ag: -1.8

What do the screens show for `COc1ccc(CNC(=O)C(c2ccncc2)N(C(=O)Cc2cccs2)c2cccc(C)c2)cc1` (stereo not drawn)?
TRPML1 inh: -10.8; CtBP-E1A inh: 2.2; TRPML1 ag: 0.9; Six1-Eya2 blk: -1.0; D2 ag: -1.2

Results for Cc1ccc(S(=O)c2ccc(C)cc2)cc1 ?
TRPML1 inh: 13.2; CtBP-E1A inh: 6.8; TRPML1 ag: 1.6; PINK1 expr mod: -1.3%; Six1-Eya2 blk: -0.7; D2 ag: -0.6

How did Cc1nc(-c2ccc(S(=O)(=O)Nc3cc(Cl)ccc3C)cc2)co1 do in these assays?
TRPML1 inh: -8.4; TRPML1 ag: 1.8; PINK1 expr mod: inconclusive

What do the screens show for `COc1ccc(NC(=O)C2CCCN(c3ncccn3)C2)cc1` (stereo not drawn)?
TRPML1 inh: -8.8; CtBP-E1A inh: 6.8; TRPML1 ag: -0.7; PINK1 expr mod: -0.7%; Six1-Eya2 blk: 0.8; D2 ag: -1.8

What do the screens show for `CC(C)(C)OC(=O)N1CCC(c2c(C(=O)NCC3CCN(C4CCCC4)C3)cnn2-c2ccc(F)cc2)CC1` (stereo not drawn)?
TRPML1 inh: -6.0; CtBP-E1A inh: -6.1; TRPML1 ag: 1.0; PINK1 expr mod: 0.1%; Six1-Eya2 blk: -1.8; D2 ag: -3.7

What do the screens show for `Cc1nccn1C(c1ccccc1)c1ccccc1`?
TRPML1 inh: 20.3; CtBP-E1A inh: -2.8; TRPML1 ag: 1.9; PINK1 expr mod: -0.9%; Six1-Eya2 blk: 5.0; D2 ag: -3.4

Results for Cc1ccc(S(=O)(=O)Cn2nnnc2C(C(C)C)N2CCN(Cc3ccco3)CC2)cc1 (stereo not drawn) ?
TRPML1 inh: -1.4; CtBP-E1A inh: -4.3; TRPML1 ag: 0.0; PINK1 expr mod: -0.8%; Six1-Eya2 blk: -7.4; D2 ag: -6.3

What do the screens show for `CCCN(CC(=O)Nc1ccccc1C)C(=O)c1ccc2ccccc2n1`?
TRPML1 inh: -5.8; CtBP-E1A inh: 0.0; TRPML1 ag: -0.7; PINK1 expr mod: 2.7%; Six1-Eya2 blk: 26.8; D2 ag: -5.0

How did Cc1cc(Cl)ccc1N(CC(=O)N(C)Cc1ccccc1)S(C)(=O)=O do in these assays?
TRPML1 inh: 5.1; CtBP-E1A inh: 2.8; TRPML1 ag: -0.5; PINK1 expr mod: 0.1%; Six1-Eya2 blk: -0.6; D2 ag: -0.1

What do the screens show for `CCC(CC)C(=O)N=C1SC2CS(=O)(=O)CC2N1CCc1ccc(OC)cc1` (stereo not drawn)?
TRPML1 inh: -1.5; CtBP-E1A inh: 7.8; TRPML1 ag: 1.3; Six1-Eya2 blk: 2.0; D2 ag: 2.0

How did C=C(C)C1Cc2cc3ccc(=O)oc3cc2O1 (stereo not drawn) do in these assays?
TRPML1 inh: 3.2; CtBP-E1A inh: -1.5; TRPML1 ag: 2.7; PINK1 expr mod: 4.2%; Six1-Eya2 blk: 3.2; D2 ag: -1.8

What do the screens show for `O=C(COc1ccccc1Cl)Nc1ccccc1C(=O)NC1CC1`?
TRPML1 inh: -4.3; CtBP-E1A inh: 11.9; TRPML1 ag: 0.7; PINK1 expr mod: -0.3%; Six1-Eya2 blk: 2.5; D2 ag: 2.3

What do the screens show for `Oc1c(CN2CCOCC2)cc(CN2CCOCC2)c(O)c1O`?
TRPML1 inh: -0.4; CtBP-E1A inh: -1.7; TRPML1 ag: 0.0; PINK1 expr mod: 5.3%; Six1-Eya2 blk: -15.0; D2 ag: 3.8

Results for COc1ccccc1NC(=O)CNC(=O)CC12CC3CC(CC(C3)C1)C2 ?
TRPML1 inh: 11.4; CtBP-E1A inh: 17.2; TRPML1 ag: 0.1; PINK1 expr mod: 0.8%; Six1-Eya2 blk: 0.3; D2 ag: 14.3

What do the screens show for `CCC1CCCCN1C(=O)CCc1nnc(Cc2c[nH]c3ccccc23)o1` (stereo not drawn)?
TRPML1 inh: -22.3; CtBP-E1A inh: -1.9; TRPML1 ag: 0.4; PINK1 expr mod: 1.2%; Six1-Eya2 blk: -17.5; D2 ag: -1.0

Quoted from the entries so far, 3 compounds:
How did Cc1cc(Cl)ccc1N(CC(=O)N(C)Cc1ccccc1)S(C)(=O)=O do in these assays?
TRPML1 inh: 5.1; CtBP-E1A inh: 2.8; TRPML1 ag: -0.5; PINK1 expr mod: 0.1%; Six1-Eya2 blk: -0.6; D2 ag: -0.1

What do the screens show for `CCC(CC)C(=O)N=C1SC2CS(=O)(=O)CC2N1CCc1ccc(OC)cc1` (stereo not drawn)?
TRPML1 inh: -1.5; CtBP-E1A inh: 7.8; TRPML1 ag: 1.3; Six1-Eya2 blk: 2.0; D2 ag: 2.0

How did C=C(C)C1Cc2cc3ccc(=O)oc3cc2O1 (stereo not drawn) do in these assays?
TRPML1 inh: 3.2; CtBP-E1A inh: -1.5; TRPML1 ag: 2.7; PINK1 expr mod: 4.2%; Six1-Eya2 blk: 3.2; D2 ag: -1.8
